Source: PubChem BioAssay
HIV Env fusion = inhibitors of HIV Env-mediated cell fusion. 360,000 compounds, 1.1% hits. HeLa-JRFL Env/CEM21 cell fusion, luciferase. inhibition, % at 12.3 µM;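 active = mean replicate inhibition score of at least 50 and every replicate individually at or above 50; inconclusive = only one of the two criteria met; inactive = mean below 50 and not all replicates reaching 50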;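 note: 0% = plate neutral controls and 100% = maraviroc near 300 nM; one replicate is shown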
PABP FP inh = blocks human PABP binding to poly(A) RNA. fluorescence polarization. 290,000 compounds, 1% hits. P11940. AID 2014. inhibition, % at 35 µM;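 active = 50% or more with normal probe brightness, or confirmed in later tests; inconclusive = above 50% with abnormal brightness, or retests that disagree; inactive = below 50% or failed in later tests; about a fifth of its hits are not listed in these tables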;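 note: calls also rest on retests at 20 µM and on dose response follow-up; controls were probe without protein and protein plus probe with vehicle; some compounds called inactive have numbers as strong as hits; many hits fall short of the cut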
MT1-MMP act inh = MT1-MMP (human) activation inhibition. GFP/RFP ratio change, % at 20 µM. HT1080 RFP-PRO-GFP cells, GFP/RFP ratio fluorescence, overnight; percent of plate control window, DMSO zero. 360,000 compounds, 0.061% hits;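 active = GFP/RFP ratio change of at least 30% with cell ATP level not reduced by more than half and red fluorescence within 50% of control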; note: strong numbers were not always called active
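Assay system: RFP-PRO-GFP reporter HT1080 cells; read-out basis: GFP/RFP fluorescence ratio; benchmarks: DMSO wells and RFP-L50D-GFP cells; doses: 20 µM single dose, 1% DMSO; schedule: overnight cell settling, then overnight compound exposure, 37 °C, 5% CO2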
eIF4H FP inh = inhibitors of RNA binding by human eIF4H; Q15056; eIF4H fluorescence polarization binding assay; inhibition, % at 35 µM; 290,000 compounds, 0.94% hits;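 active = 50% or more with normal probe brightness, or confirmed in later tests; inconclusive = above 50% with abnormal brightness, or retests that disagree; inactive = below 50% or failed in later tests; about a fifth of its hits are not listed in these tables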;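 note: calls also rest on retests at 20 µM and on dose response follow-up; 0% = protein and probe with vehicle and 100% = probe without protein; strong numbers were not always called active; many hits fall short of the cut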
Rce1 inh = inhibitors of yeast Ras-converting enzyme; Q03530; yeast membranes, quenched prenylated peptide cleavage fluorescence; calls only; 290,000 compounds, 0.27% hits; AID 2563;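 active = fall in fluorescence gain of 50% or more versus controls, with final raw signal at or below 3038400; inconclusive = same 50% fall but final raw signal above 3038400; inactive = fall in fluorescence gain under 50%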;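 note: plate controls were neutral control wells for no effect and wells lacking membranes for full effect; tested at 10 µM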
Target sequence (Q03530 whole entry, looked up): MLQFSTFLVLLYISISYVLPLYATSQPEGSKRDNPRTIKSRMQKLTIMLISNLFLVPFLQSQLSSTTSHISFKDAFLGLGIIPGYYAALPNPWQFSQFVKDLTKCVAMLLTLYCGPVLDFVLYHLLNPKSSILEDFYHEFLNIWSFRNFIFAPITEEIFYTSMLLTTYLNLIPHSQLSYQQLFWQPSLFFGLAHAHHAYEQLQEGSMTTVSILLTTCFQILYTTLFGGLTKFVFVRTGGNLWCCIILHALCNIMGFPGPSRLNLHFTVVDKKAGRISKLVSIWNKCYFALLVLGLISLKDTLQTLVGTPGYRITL
CSC inhib = cancer stem cell inhibition; cancer stem cell-like cells viability, luminescence; inhibition, % at 7.5 µM; 300,000 compounds, 1.1% hits; AID 2717;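 active = mean at 75% or more and at least half the replicates too; inconclusive = mean and replicates disagree; tested in HMLE shEcad cells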;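 note: 0% = median of negative and 100% = median of positive control wells; the first replicate is given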
Yeast UUG start = yeast start codon fidelity modulation; 350,000 compounds, 0.13% hits; activity score, % at 18.7 µM; AID 602363; S. cerevisiae UUG-firefly luciferase reporter, luminescence/redox ratio;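 active = replicate mean at a twofold rise or more, about +100% in these data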;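 note: firefly luciferase made from a UUG start codon reports start codon fidelity; reporter light over untreated wells divided by growth signal over untreated wells; some hits fall short of that in this replicate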
eIF4H FP inh retest = further read-out of eIF4H FP inh, marked with its call; inhibition, %; compound at 20 µM; confirmation average;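 mean of two retest wells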
PABP FP inh retest = also measured in PABP FP inh; calls as there; inhibition, %; compound at 20 µM; confirmation repeats;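 mean of two retest wells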
MT1-MMP act inh RFP = second read-out of MT1-MMP act inh, no call of its own (marks repeat the call); RFP signal change, %; measured here: RFP expression control read;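 0 = vehicle wells; hits needed this value within 50% of zero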
Active calls of the source: *; i = inactive; ? = inconclusive; nt = not tested or not shown; & = joins results of further samples.

SMILES	HIV Env fusion	PABP FP inh	MT1-MMP act inh	MT1-MMP act inh RFP	eIF4H FP inh	Rce1 inh	CSC inhib	Yeast UUG start	others
CN1CCN(C2=Nc3ccccc3Oc3ccc(Cl)cc32)CC1	i	5&12	0	-3	1&-2	i	-21	-7
CC(=O)Nc1cc(-c2ccc(C(=O)NC3CC3)cc2)cn2c(-c3cccc(C(F)(F)F)c3)cnc12	-14	nt	-21	-17	nt	nt	nt	-12
C/C(CC(O)c1ccc2ccccc2n1)=N/O (stereo unspecified)	nt	-4	-4	0	-2	i	-8	nt
COCC(=O)Nc1sc2c(c1C(=O)OC)CCCC2	24	6	-69	-62	-8	i	-12	-18
CCCCCCSc1ccc([C@@H]2[C@@H]3C(=O)N(C)C(=O)[C@@H]3[C@]3(C(=O)OC)CCCCN23)cc1	19	nt	-8	-19	nt	nt	nt	7
CC(=O)Nc1ccc(NC(=O)c2c(C)nn(Cc3ccccc3)c2Cl)cc1	4	5	1	1	-6	i	-8	5
CCN(CC)CC(=O)N1c2ccccc2Sc2ccc(Cl)cc21	-236	7	-1	6	-9	i	nt	-20
Cc1noc(C)c1S(=O)(=O)N(CC(=O)N1CCc2ccccc21)c1ccc(C(C)C)cc1	-26	1	-4	-1	-9	i	11	-10
Cc1c(CC(=O)O)c(=O)oc2c(C)c(OCc3nn[nH]n3)ccc12	-7	-1	5	2	-1	i	2	nt
COc1ccc(Br)cc1S(=O)(=O)N(CC(=O)N1CCOCC1)c1ccccc1	nt	-17	-2	2	-4	nt	13	nt
C/C(=C\c1ccccc1)C(=O)NCCN1CCOCC1	-6	14	2	8	-6	i	4	nt
CC1(C(=O)NCc2ccc(F)c(F)c2)Cc2c(-c3cccc(C(F)(F)F)c3)ccnc2O1 (stereo unspecified)	16	nt	1	-8	nt	nt	nt	3
O=C(CSc1n[nH]c(-c2ccccn2)n1)Nc1ccc(Cl)cc1	31	2	-2	-4	10	i	-2	-18
O=C(O)c1cc2[nH]c3c(c2cc1Cl)CCCC3	-9	1	1	2	-6	i	-6	-16
O=C(CN1CCN(C(=O)C2CCCO2)CC1)Nc1cc(C(F)(F)F)ccc1Cl (stereo unspecified)	6	-5	8	-2	-2	i	6	-15
CCOC(=O)c1cc(S(=O)(=O)NC2CCCCC2)cn1C	-1	nt	5	1	nt	i	-3	2
Cc1noc(NS(=O)(=O)c2ccc(NC(=O)c3ccccc3NS(=O)(=O)c3ccc(F)cc3)cc2)c1C	3	nt	0	-1	nt	nt	-22	-17
COc1ccc(CN(C(=O)c2nsc(Cl)c2Cl)C(C(=O)NC2CCCC2)c2ccc(C)cc2)cc1 (stereo unspecified)	39	15	-53	-45	3	i	36	nt
CC(=O)Nc1ccc(Cl)c(C(N)=O)c1	21	13	-3	8	-6	i	-22	-1
CC(C)CNC(=O)c1cccc(NC(=O)c2ccc(NC(=O)c3ccco3)cc2)c1	nt	-16	-1	0	-9	i	3	-17
COc1cccc(-n2nnnc2SCC(=O)c2ccc(NC(C)=O)cc2)c1	nt	-10	-3	-4	-9	i	2	-15
Cc1ccc(C)c(S(=O)(=O)N2CCCOC2CNC(=O)C(=O)NCCCN2CCOCC2)c1 (stereo unspecified)	25	2	-2	-1	2	i	-5	1
Cc1cc(C(=O)COC(=O)c2nccnc2N)c(C)n1C	3	-5	-5	-2	10	i	-6	-51
O=C(c1ccncc1)N1CCN(c2cc(-c3ccccc3)nc3cc(-c4cccc(Cl)c4)nn23)CC1	?	nt	-8	-36	nt	nt	nt	-18
O=C(NCC1CCCO1)c1cn(-c2ccccc2)nc1-c1ccc(F)cc1 (stereo unspecified)	10	0	0	-2	-11	i	0	9

(cont.)
SMILES	HIV Env fusion	PABP FP inh	MT1-MMP act inh	MT1-MMP act inh RFP	eIF4H FP inh	Rce1 inh	CSC inhib	Yeast UUG start	others
CCOc1cc(C(=O)OCC(=O)Nc2cccc(C)c2)ccc1OCC(=O)N1CCOCC1	8	-6	-3	0	-8	nt	-7	-11
O=C1CCCCC1C(=O)c1cn(-c2ccc(Cl)c(Cl)c2)nn1 (stereo unspecified)	-16	8	3	1	1	i	-7	-9
CN(C)S(=O)(=O)c1ccc(NC(=O)c2cc(F)c(F)cc2Cl)cc1	nt	1	5	-2	-5	i	-1	-15
N#CC(c1nc2ccccc2nc1N1CCOCC1)S(=O)(=O)c1ccccc1 (stereo unspecified)	-63	15	-1	2	34	i	6	nt
CCN(CC)S(=O)(=O)c1ccc(-c2nnc(SC)o2)cc1	-8	-5	2	0	4	i	3	-12
C[C@H]1CC[C@H]2C(=O)N3[C@H](c4ccccc4Br)[C@@H](C)CC[C@H]3C(=O)N2[C@@H]1c1ccccc1Br	nt	9	nt	nt	2	i	54	nt
CC[C@]1(C(=O)OC)[C@H]2C(=O)N(Cc3ccccc3)C(=O)[C@H]2[C@H]2CN=C(SCC(=O)c3ccccc3)N21	72*	nt	5	6	nt	nt	nt	-14
CC(=O)Nc1cccc(-c2ccnc3c2CC(C(=O)NCC2CC2)O3)c1 (stereo unspecified)	-6	nt	4	-8	nt	nt	nt	2
O=C(CCC(=O)N1CCOc2ccccc21)NC1CCCCCC1	24	4	2	6	-6	i	-14	0
Cc1ccc(Cn2nnc3c(=O)[nH]c(C4CCCN(C(=O)c5ccco5)C4)nc32)cc1 (stereo unspecified)	4	9	-2	2	4	i	2	25
CS(=O)(=O)N1CCCC(C(=O)NCc2ccco2)C1 (stereo unspecified)	nt	6	-3	1	7	i	5	-22
O=C1c2cccc3cccc(c23)C(=O)N1Cc1ccco1	-9	-6	1	2	-1	i	-10	nt
CC1CCCCN1C(=O)CSc1nnc2c(n1)[nH]c1ccccc12 (stereo unspecified)	0	9	-6	-13	-7	i	-7	-5
Cc1ccccc1S(=O)(=O)Cc1ccc(C(=O)N2CC(C)CC(C)C2)o1 (stereo unspecified)	27	6	-3	0	-2	i	8	-14
CC(C)NC(=O)N(O)C1N(Cc2ccc3c(c2)OCO3)C(=S)SC1(C)C (stereo unspecified)	nt	3	-4	-6	5	i	-19	-8
C(=C\c1ccccc1)/CSc1nnc(-c2ccccc2)n1Cc1ccco1	-27	-2	-3	-12	-4	i	66	nt
COc1ccc(C(CCNCc2ccc(N(C)C)cc2)c2ccccc2)cc1 (stereo unspecified)	69*	12	-6	-5	-4	i	10	-14
O=C1NC(c2ccccc2)=CC(c2ccccc2O)N1 (stereo unspecified)	-30	nt	-3	4	nt	i	-4	-13
C/C(CC(=O)Nc1ccccc1Cl)=N\NC(=O)C(=O)NCCO	5	58	2	6	-10	i	-2	1	eIF4H FP inh retest=4;PABP FP inh retest=-2
Cc1cccc(NC(=O)/C(C#N)=C/c2cn(CC(=O)NCc3ccco3)c3ccccc23)c1C	0	20	4	-7	2	i	9	nt
O=C(CSc1nccc(=O)[nH]1)Nc1ccc2ccccc2c1	nt	nt	1	4	nt	nt	-8	2
Cc1cc(-c2ccccc2)c2c(=O)n(-c3ccccc3)[nH]c2n1	-7	2	4	2	-14	i	-11	-13
CC(=O)Nc1ccc(S(=O)(=O)N(C)CC(=O)Nc2ccc(F)c(F)c2F)cc1	-14	nt	2	1	nt	nt	-15	nt
CCc1ccc(C(=O)NC2CCCCC2)s1	-68	-7	-3	2	0	i	-12	-10
COc1ccc(NC(=O)CCNC(=O)C2CCN(S(=O)(=O)c3ccc(F)cc3)CC2)cc1OC	4	-5	1	3	-6	i	-6	-8
O=C(NCCCO)c1cc2c([nH]c3ccccc32)c(-c2ccc(F)cc2)n1	-11	8	-18	-15	7	i	-1	-5
CCCc1cc(=O)oc2c(C)c(OCc3nn[nH]n3)ccc12	2	10	4	5	-4	i	-7	nt
O=C(CC1SC2=NCCN2C1=O)Nc1ccccc1 (stereo unspecified)	10	0	1	1	2	i	5	-16
O=C(N/N=C1\CCCc2ccccc21)c1ccc([N+](=O)[O-])cc1	-16	-1	2	3	-4	i	1	0

16 neighbouring entries out of the list so far:
SMILES	HIV Env fusion	PABP FP inh	MT1-MMP act inh	MT1-MMP act inh RFP	eIF4H FP inh	Rce1 inh	CSC inhib	Yeast UUG start	others
Cc1ccc(Cn2nnc3c(=O)[nH]c(C4CCCN(C(=O)c5ccco5)C4)nc32)cc1 (stereo unspecified)	4	9	-2	2	4	i	2	25
CS(=O)(=O)N1CCCC(C(=O)NCc2ccco2)C1 (stereo unspecified)	nt	6	-3	1	7	i	5	-22
O=C1c2cccc3cccc(c23)C(=O)N1Cc1ccco1	-9	-6	1	2	-1	i	-10	nt
CC1CCCCN1C(=O)CSc1nnc2c(n1)[nH]c1ccccc12 (stereo unspecified)	0	9	-6	-13	-7	i	-7	-5
Cc1ccccc1S(=O)(=O)Cc1ccc(C(=O)N2CC(C)CC(C)C2)o1 (stereo unspecified)	27	6	-3	0	-2	i	8	-14
CC(C)NC(=O)N(O)C1N(Cc2ccc3c(c2)OCO3)C(=S)SC1(C)C (stereo unspecified)	nt	3	-4	-6	5	i	-19	-8
C(=C\c1ccccc1)/CSc1nnc(-c2ccccc2)n1Cc1ccco1	-27	-2	-3	-12	-4	i	66	nt
COc1ccc(C(CCNCc2ccc(N(C)C)cc2)c2ccccc2)cc1 (stereo unspecified)	69*	12	-6	-5	-4	i	10	-14
O=C1NC(c2ccccc2)=CC(c2ccccc2O)N1 (stereo unspecified)	-30	nt	-3	4	nt	i	-4	-13
C/C(CC(=O)Nc1ccccc1Cl)=N\NC(=O)C(=O)NCCO	5	58	2	6	-10	i	-2	1	eIF4H FP inh retest=4;PABP FP inh retest=-2
Cc1cccc(NC(=O)/C(C#N)=C/c2cn(CC(=O)NCc3ccco3)c3ccccc23)c1C	0	20	4	-7	2	i	9	nt
O=C(CSc1nccc(=O)[nH]1)Nc1ccc2ccccc2c1	nt	nt	1	4	nt	nt	-8	2
Cc1cc(-c2ccccc2)c2c(=O)n(-c3ccccc3)[nH]c2n1	-7	2	4	2	-14	i	-11	-13
CC(=O)Nc1ccc(S(=O)(=O)N(C)CC(=O)Nc2ccc(F)c(F)c2F)cc1	-14	nt	2	1	nt	nt	-15	nt
CCc1ccc(C(=O)NC2CCCCC2)s1	-68	-7	-3	2	0	i	-12	-10
COc1ccc(NC(=O)CCNC(=O)C2CCN(S(=O)(=O)c3ccc(F)cc3)CC2)cc1OC	4	-5	1	3	-6	i	-6	-8
